# Mtb bLac sens: beta-lactam sensitization of Mtb H37Rv; M. tuberculosis H37Rv growth with meropenem, percent inhibition; hits of this screen are not shown here; inhibition, % at 25 µM; 330,000 tested, 0.27% active; AID 434955;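 active = about 74% or more and at least 40 points above the plate without the antibiotic, then above 30% in a dose series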;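 also: growth measured after seven days incubation then overnight dye step; 0% = bacteria only wells and 100% = bacteria with antibiotic; twin plates without the antibiotic show which effects depend on it; some results filed as inactive read as strong as hits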
# Mtb H37Rv: M. tuberculosis H37Rv growth inhibitors, H37Rv strain (AID 1626); inhibition, % at 10 µM, or IC50 in µM where a hit was titrated; M. tuberculosis H37Rv growth inhibition; higher % means a stronger effect; 220,000 tested, 0.95% active;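 active = confirmed in a dose series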;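 also: bacteria incubated seven days before Alamar blue readout; 0% = bacteria only wells and 100% = bacteria with antibiotic wells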
# RecA intein inh: blocks M. tuberculosis RecA intein splicing; P9WHJ3; cell-free RecA intein splicing, fluorescence; inhibition, %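 (about 9 µM by stock and volumes)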; 290,000 tested, 0.75% active; AID 2221; in the data active = inhibition above about 30%;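 also: 0% = vehicle wells and 100% = reference inhibitor control wells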
# Target sequence (P9WHJ3 whole entry, looked up): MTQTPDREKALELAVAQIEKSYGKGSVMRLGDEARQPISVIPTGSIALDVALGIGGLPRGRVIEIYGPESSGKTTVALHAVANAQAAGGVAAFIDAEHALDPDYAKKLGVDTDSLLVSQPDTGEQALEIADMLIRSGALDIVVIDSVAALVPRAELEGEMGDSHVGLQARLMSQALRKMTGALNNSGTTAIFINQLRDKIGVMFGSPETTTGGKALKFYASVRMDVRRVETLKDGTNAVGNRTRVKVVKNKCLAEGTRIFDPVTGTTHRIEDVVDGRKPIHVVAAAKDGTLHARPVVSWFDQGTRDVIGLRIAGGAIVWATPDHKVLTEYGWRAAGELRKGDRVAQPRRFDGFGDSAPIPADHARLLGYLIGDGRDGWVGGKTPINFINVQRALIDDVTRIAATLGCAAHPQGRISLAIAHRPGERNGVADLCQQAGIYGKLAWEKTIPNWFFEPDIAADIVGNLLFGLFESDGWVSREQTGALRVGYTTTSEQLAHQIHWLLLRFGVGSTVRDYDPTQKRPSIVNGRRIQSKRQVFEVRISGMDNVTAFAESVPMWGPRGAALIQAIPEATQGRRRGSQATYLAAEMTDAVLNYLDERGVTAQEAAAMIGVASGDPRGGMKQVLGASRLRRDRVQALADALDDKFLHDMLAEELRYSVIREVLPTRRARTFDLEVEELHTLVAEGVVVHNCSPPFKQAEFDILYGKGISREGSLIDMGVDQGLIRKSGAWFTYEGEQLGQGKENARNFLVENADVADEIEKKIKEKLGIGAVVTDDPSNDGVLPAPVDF
# YopH PTP inh: inhibitors of Yersinia enterocolitica YopH tyrosine phosphatase. 140,000 tested, 0.16% active. fluorescence Ex485/Em525. AID 898. inhibition, %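 (about 10 µM by stock and volumes)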;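 active = inhibition of 50% or more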;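 also: controls were vehicle for no effect and minimum signal wells for full effect; inactives centre near -20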
# Arbovirus anti: arbovirus infection inhibition | arbovirus infection cell-based antiviral screen | inhibition, % at 10 µM | 200,000 tested, 0.37% active | AID 1251;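 active = inhibition from about 30%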;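 also: bluetongue infection of BSR cells; cell survival read as ATP light after 72 h; 0% = infected wells without compound and 100% = uninfected wells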
# Arbovirus anti repeat: recorded beside Arbovirus anti, whose call it bears; inhibition, %; measured here: 10K subset replicate screen; many hits read low in the repeat;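 first of two repeat runs on a subset; 0% = infected and 100% = uninfected wells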
# Numbers without * were called inactive; x = not tested or not shown. Not all compounds are listed; rates above refer to the full screens.
SMILES,Mtb bLac sens,Mtb H37Rv,RecA intein inh,YopH PTP inh,Arbovirus anti,others
C=C1C/C(=C/C)C(=O)O[C@@H]2CCN3CC=C(COC(=O)[C@]1(C)O)[C@H]23,4,-8%,-0.2,x,x,
Cc1ccc(SCC(=O)NCc2ccncc2)cc1,8,6%,3.9,-14,0,
CSc1ccccc1NC(=O)c1cc(Cl)sc1Cl,44,x,-1.2,x,x,
O=C(CN1CCOCC1)NCc1ccccc1,-1,x,x,25,4,
CNC(=S)N=Nc1c(O)[nH]c2ccc(C(C)C)cc12,8,58%,12,-10,-21,
CCOc1ccccc1NC(=S)N1CCN(c2nc(-c3ccc(F)cc3)cs2)CC1,1,7%,3.3,x,-4,
CN(C)c1cccc(C(=O)NCC2CCCO2)c1 (centres undefined),-4,8%,-2.7,-4,-3,
CCn1cc(C(=O)NC2CCCCC2C)c(=O)c2ccc(C)nc21 (centres undefined),-2,3%,-0.8,-27,-2,
COc1ccc(OC)c(NC(=O)c2c3c(nc4ccccc24)CCC3)c1,x,-2%,0.7,-10,5,
COC(=O)CSc1nnc(SCc2ccc(OC)cc2)s1,63,x,-0.5,-6,5,
C=CCn1c(SC(C)C(=O)NCCC2=CCCCC2)nc2ccccc2c1=O (centres undefined),3,0%,2.8,-20,0,
CCN(CC)S(=O)(=O)c1ccc(-c2nnc(SCc3nnc(-c4ccc(C)cc4)o3)n2CC)cc1,-7,-2%,-1.1,-6,-2,
CCOC(=O)C1=C(N)Oc2cc(O)ccc2C1c1cccnc1 (centres undefined),2,-1%,-4.6,-33,0,
CCOc1ccc2nc(NC(=O)c3cc([N+](=O)[O-])ccc3N3CCOCC3)sc2c1,-2,5%,2.7,-32,-21,
O=C(CSc1nnc(-c2ccccc2)o1)NC1CCCCC1,0,-4%,x,-8,3,
CCCCOc1ccc(C(C)NC(=O)CCS(=O)(=O)Cc2ccc(C)cc2)cc1 (centres undefined),-4,9%,-5.1,-17,-3,
Cc1ccc(Cl)cc1N1CCN(C(=O)Cc2ccc(-n3c(=O)[nH]c4ccsc4c3=O)cc2)CC1,30,19%,7.8,-34,-10,
CC(=O)Oc1ccc(Nc2ccccc2)cc1,12,1%,-1.2,x,-6,
CCCN(CCC)c1ncnc2c1cnn2-c1ccc(OC)cc1,95,62%,1.3,-8,-8,
CCOC(=O)Cc1csc(NC(=O)CSc2ncnc3c2cnn3-c2ccc(OC)cc2)n1,-11,47%,5.4,-39,10,
CCCCNc1nc2c(S(=O)(=O)c3ccccc3)nnn2c2ccccc12,4,4%,2.2,x,4,
COc1ccc(C2CC(=O)C3=C(C2)NC(C)=C(C(=O)Nc2ccccc2C)C3c2coc3ccc(C)cc3c2=O)cc1OC (centres undefined),98,76%,x,-6,-10,
Cc1cc(C)n(C(=O)c2ccc(C)o2)n1,-5,-12%,0.0,-15,1,
Cc1cccc(N2CCN(CC(=O)NCC3CCCCC3)CC2)c1C,10,5%,-5.3,-24,-4,
COc1ccc(S(=O)(=O)NCC(c2cccnc2)N2CCN(Cc3ccccc3)CC2)cc1C (centres undefined),-9,x,3.4,x,x,
CCCCCCCCCCCC(=O)NC(C(=O)O)C(O)c1ccccc1 (centres undefined),-5,-3%,4.0,x,32*,
Cc1ccc(S(=O)(=O)N2CCCCC2)cc1C(=O)N1CCCC1,-5,x,-2.0,x,x,
O=[N+]([O-])c1cc(C(F)(F)F)ccc1N1CCC(O)CC1,-4,1%,1.0,x,2,
Cc1ccc(C)c(OCCC(=O)OCC(=O)c2c(N)n(C)c(=O)n(C)c2=O)c1,-7,x,3.6,x,x,
CC(C)C(=O)Nc1ccc(C(=O)Nc2ccc(Br)cc2F)cc1,1,6%,3.1,x,-4,
CC(NC(=O)COC(=O)Cc1ccsc1)C1CC2CCC1C2 (centres undefined),-5,-4%,1.3,-29,5,
COc1cc(C(=O)Oc2ccc(Br)cc2C(=S)N2CCOCC2)cc(OC)c1OC,-9,x,6.2,x,x,
Cc1[nH]c(=O)c(C#N)c2c1COC(C)(C)C2,-1,-5%,-1.8,x,1,
CCOC(=O)C1CCCN(C(=O)c2ccc(CS(=O)(=O)c3ccc(Br)cc3)o2)C1 (centres undefined),-6,-5%,0.2,-14,11,Arbovirus anti repeat=3
Cn1c(=O)n(C)c2cc(S(=O)(=O)N3CCN(c4ccccc4)CC3)ccc21,-5,-3%,-0.4,x,x,
CCCC(=O)N(Cc1cc2cccc(C)c2[nH]c1=O)c1ccccc1OC,-1,-2%,3.2,-14,-2,

# 7 records picked at random from those above, as already listed:
SMILES,Mtb bLac sens,Mtb H37Rv,RecA intein inh,YopH PTP inh,Arbovirus anti,others
COc1ccc(S(=O)(=O)NCC(c2cccnc2)N2CCN(Cc3ccccc3)CC2)cc1C (centres undefined),-9,x,3.4,x,x,
CCOc1ccccc1NC(=S)N1CCN(c2nc(-c3ccc(F)cc3)cs2)CC1,1,7%,3.3,x,-4,
CC(=O)Oc1ccc(Nc2ccccc2)cc1,12,1%,-1.2,x,-6,
CCCCCCCCCCCC(=O)NC(C(=O)O)C(O)c1ccccc1 (centres undefined),-5,-3%,4.0,x,32*,
COc1cc(C(=O)Oc2ccc(Br)cc2C(=S)N2CCOCC2)cc(OC)c1OC,-9,x,6.2,x,x,
CCOC(=O)C1=C(N)Oc2cc(O)ccc2C1c1cccnc1 (centres undefined),2,-1%,-4.6,-33,0,
O=C(CN1CCOCC1)NCc1ccccc1,-1,x,x,25,4,

# Additional records.
SMILES,Mtb bLac sens,Mtb H37Rv,RecA intein inh,YopH PTP inh,Arbovirus anti,others
CC(NC(=O)Nc1ccccc1O)(C(F)(F)F)C(F)(F)F,84,5%,2.4,-23,-13,
CCOC(=O)/C(=C/c1ccc(OC(=O)c2ccncc2)cc1)C(C)=O,2,-10%,0.2,x,1,
Cc1[nH]n(-c2ccc([N+](=O)[O-])cc2)c(=O)c1C=NCCN1CCN(C(=O)c2ccccc2)CC1,-6,-2%,3.2,-19,-12,
O=C(Nc1ncc([N+](=O)[O-])s1)C1CC(=O)N(c2ccc(F)cc2)C1 (centres undefined),1,x,15,x,x,
Cc1cc(C)c2[nH]c(=O)c(C(c3nnnn3C(C)(C)C)N(Cc3ccco3)CC3CCCO3)cc2c1 (centres undefined),-2,-1%,-2.0,-12,-6,
Cc1nonc1OCCNc1ccc([N+](=O)[O-])cc1,5,9%,x,-33,8,
CCOC(=O)C1=C(CS(=O)(=O)c2ccc(C)cc2)NC(=O)NC1c1cc(OC)c(O)c(OC)c1 (centres undefined),4,x,-5.2,x,x,
Cn1ncc(Cl)c1C(=O)NCc1ccc(Cl)cc1,1,1%,0.2,-33,14,
Cc1c(CCOC(=O)c2cc([N+](=O)[O-])cc([N+](=O)[O-])c2)sc[n+]1CC(=O)c1ccccc1,97,4%,-2.1,x,0,
CCCn1c(-c2ccccc2)cc(SC)c(C#N)c1=O,6,4%,1.6,x,-4,
CN(Cc1nc2ccc(F)cc2[nH]1)C(=O)C1CCC(=O)N(C2CC2)C1 (centres undefined),3,x,1.9,x,x,
COc1ccc2oc(C(=O)OC(C)C(=O)NCc3ccccc3)c(C)c2c1 (centres undefined),-8,x,-2.3,x,x,
CC(NC(=O)c1cccnc1)C(c1cccs1)N1CCOCC1 (centres undefined),0,-2%,0.6,28,4,
Cc1nn(CC(=O)Nc2c(F)cc(F)cc2Br)c(=O)c2cccn12,-10,x,7.4,x,x,
COC1CCN(Cc2cn(Cc3ccccc3)nc2-c2cc3ccccc3o2)CC1,5,6%,1.4,x,-16,
Cc1cc(C(=O)N/N=C(\CCC(=O)O)c2cccs2)c2ccccc2n1,3,-2%,8.4,x,-11,
COc1cc(Cl)c(C)cc1NC(=O)COC(=O)c1cc(SC)ccc1Cl,-3,-12%,-0.7,-21,2,
Cc1cc(=O)n2[nH]c(-c3ccc(Cl)cc3)cc2n1,-2,-11%,x,-19,-8,
COc1ccc(NC(=S)Nc2cccnc2)c(OC)c1,-8,-6%,0.2,x,-2,
Cc1ncc([N+](=O)[O-])n1CCN1C(=O)c2ccccc2C1=O,-3,x,1.7,x,x,
CN(CCO)c1cc(N(C)CCO)c([N+](=O)[O-])cc1[N+](=O)[O-],-7,3%,0.6,x,14,
Cc1[nH]c2ccc(C(=O)N3CCN(C)CC3)cc2c1C,-14,x,-0.3,x,x,
NC(=O)[C@H]1CC2(CC(c3cccc(NC(=O)CC(c4ccccc4)c4ccccc4)c3)=NO2)CN1C(=O)c1ccccc1C(=O)c1ccccc1 (some centres undefined),5,22%,15,x,x,
CS(=O)(=O)Nc1ccc(C(=O)Nc2cccc([N+](=O)[O-])c2)cc1,1,-1%,-0.8,x,3,
OCC1(Cc2cccc(Cl)c2)CCCN(Cc2sc(N3CCCC3)nc2Cl)C1 (centres undefined),3,3%,8.8,x,5,
COc1ccc(-c2cc(C(F)(F)F)n3ncc(C(=O)N4CCCCC4c4cccnc4)c3n2)cc1 (centres undefined),43,>100µM*,-58,x,-1,
CC(=O)Nc1cccc(OCC(=O)NS(=O)(=O)c2ccc(Cl)cc2)c1,2,-2%,1.0,-46,-2,
Cc1ccc(S(=O)(=O)NCC2CCCO2)cc1 (centres undefined),39,x,0.0,x,x,
COc1ccc(C(=O)CN2CCN(c3ccc(Cl)cc3)CC2)cc1OC,-1,x,-10,x,x,
Cc1ccc(NC2(C#N)C(=O)Nc3ccccc32)cc1 (centres undefined),11,7%,-0.5,-14,5,
Cc1ccc(S(=O)(=O)NCc2ccco2)cc1C(N)=O,-8,1%,-3.3,x,13,
O=C(Cn1c(/C=C/c2ccccc2)nc2ccccc21)Nc1ccc(F)cc1,-2,18%,-1.2,19,-2,
CC(C)C(=O)Nc1nc2ccc(S(C)(=O)=O)cc2s1,1,4%,x,x,-6,
CCc1cccc(OCCCCNCCO)c1,-7,-3%,-4.3,-20,3,
O=C(COC(=O)C1CCC1)Nc1cc(S(=O)(=O)N2CCCCC2)ccc1Cl,-4,x,-2.0,x,x,
N#CCSc1nnc(COc2ccc3ccccc3c2)o1,90,-3%,6.5,-54,-8,
C[n+]1cccc2c(Br)ccc([O-])c21,0,-6%,1.0,x,x,
C/C(=N\S(=O)(=O)c1ccc(C)cc1)N1CCN(S(=O)(=O)c2ccccc2)C1,4,x,0.7,-31,0,
COc1ccc(C(=O)N2CCCC(CNC(=O)c3ccc(F)cc3)C2)cc1OC (centres undefined),-1,x,-0.3,x,x,
CSc1nc(-c2ccc(C)cc2)nc(N)c1C#N,-3,2%,-2.6,x,x,
CNC(=O)CN1C(=O)CSc2nc(C)cc(C)c21,3,-11%,1.4,12,6,Arbovirus anti repeat=2
COc1cccc(-c2nc(CS(=O)(=O)CC(=O)NC3CCCCC3C)c(C)o2)c1 (centres undefined),-5,x,0.0,x,x,
NNC(=O)c1csc(-c2ccc(C(F)(F)F)cc2Cl)n1,88,58%,-3.6,x,x,
CCc1ccc(-n2c(SCc3c(C)noc3C)nnc2-c2ccncc2)cc1,-7,-9%,0.7,-5,0,
O=C(NCc1ccccc1Cl)C1CC(=O)N(Cc2ccccc2)C1 (centres undefined),15,4%,1.2,x,0,
O=c1[nH]ncc(N/N=C\c2ccncc2)c1Cl,5,2%,-4.9,x,0,
CCNc1nc(NC(C)(C)C)nc(SC)n1,-2,-2%,-3.5,x,x,
c1ccc(CCC2CCCCN2Cc2cn[nH]c2-c2cc3ccccc3o2)nc1 (centres undefined),-10,3%,0.5,x,-1,
COC(=O)c1ccc(Oc2nc(NC(C)C)nc(SC)n2)cc1,2,28%,-0.1,-14,3,
CC1(C)Cc2c(cnn2-c2ccc(F)cc2)C(NC(=O)C2=NNC(=O)CC2)C1 (centres undefined),7,x,1.7,x,x,

# Grouped by structure: the compounds so far with a thiophene ring, fused or not
SMILES,Mtb bLac sens,Mtb H37Rv,RecA intein inh,YopH PTP inh,Arbovirus anti,others
CSc1ccccc1NC(=O)c1cc(Cl)sc1Cl,44,x,-1.2,x,x,
Cc1ccc(Cl)cc1N1CCN(C(=O)Cc2ccc(-n3c(=O)[nH]c4ccsc4c3=O)cc2)CC1,30,19%,7.8,-34,-10,
CC(NC(=O)COC(=O)Cc1ccsc1)C1CC2CCC1C2 (centres undefined),-5,-4%,1.3,-29,5,
CC(NC(=O)c1cccnc1)C(c1cccs1)N1CCOCC1 (centres undefined),0,-2%,0.6,28,4,
Cc1cc(C(=O)N/N=C(\CCC(=O)O)c2cccs2)c2ccccc2n1,3,-2%,8.4,x,-11,
